# Compound activity deposited in PubChem BioAssay by SRMLSC.
# H5N1 antiviral: MDCK cell protection from H5N1 avian flu; inhibition, % at 50 µM; cytopathic effect, luminescence, 72 h; active compounds read high; no value below 0 was filed and about half of the inactive calls have no number; reference of the scale not given here; 96,000 tested, 0.07% active; in the data active = inhibition above about 25%
# Active calls of the source: *; i = inactive. Some of the compounds tested. The share of hits here may be higher or lower than overall.
# Preview:
SMILES,H5N1 antiviral
O=C1CC(C(=O)N(c2ccc(F)cc2)C(C(=O)NC2CCCC2)c2ccccn2)CS1 (stereo unspecified),2.6
O=C(Cn1cnc2c(nnn2-c2ccccc2)c1=O)N1CCC(Cc2ccccc2)CC1,i
O=C1NC(=O)C2C3c4ccccc4C(c4ccccc43)C12 (stereo unspecified),0.3

# The list itself, from the first entry:
SMILES,H5N1 antiviral
O=C1CC(C(=O)N(c2ccc(F)cc2)C(C(=O)NC2CCCC2)c2ccccn2)CS1 (stereo unspecified),2.6
O=C(Cn1cnc2c(nnn2-c2ccccc2)c1=O)N1CCC(Cc2ccccc2)CC1,i
O=C1NC(=O)C2C3c4ccccc4C(c4ccccc43)C12 (stereo unspecified),0.3
CCC(C(=O)N1CCc2ccccc2C1)n1nc(C)n2c(cc3occc32)c1=O (stereo unspecified),2.1
O=C(COC(=O)CCCSc1nc2ccccc2[nH]1)NC(=O)NC1CCCC1,i
CCc1ccc(N2CC(C(=O)OCC(=O)Nc3cc(C)on3)CC2=O)cc1 (stereo unspecified),i
O=c1c2ccccc2nnn1CSc1ncnc2ccccc12,0.1
CCCN(CC1CC1)S(=O)(=O)c1ccc(S(N)(=O)=O)cc1,i
CCCCc1[nH]c(=O)c(C#N)c2c1CCCC2,2.5
CCCCCCOC(=O)C(C#N)c1nc2ccccc2nc1N1CCN(CC)CC1 (stereo unspecified),0.3
COc1ccccc1-c1cc(-c2cc(Cl)ccc2O)n[nH]1,i
O=c1c2c3c(sc2nc2n1CCCCC2)CCCC3,0.1
Cc1cc(C)n(C(=O)CNC(=O)Cc2ccccc2)n1,i
Cc1ccc(S(=O)(=O)NCC(C)NS(C)(=O)=O)cc1 (stereo unspecified),0.3
CC(=O)n1nc(-c2ccc(Cl)cc2)nc1NCc1ccco1,i
O=C(CN1C(=O)c2ccccc2S1(=O)=O)N1CCOCC1,i
Cc1ccc(/C=C/c2nc3ccccc3s2)s1,i
Cc1ccccc1C(=O)N1CCc2ccccc2C1,0.6
Cc1ccc(C(=O)C(C)OC(=O)c2cc3cc([N+](=O)[O-])ccc3oc2=O)cc1 (stereo unspecified),i
O=C(COc1ccccc1)N1CCN(CC(O)COc2ccccc2)CC1 (stereo unspecified),i
COc1cc(C2NC(C(=O)O)CS2)ccc1OCc1ccccc1C#N (stereo unspecified),i
CCOC(=O)c1sc(C)c(C(N)=O)c1NC1=NCCCCC1,1.5
Cc1ccc(C2/C(=C(/O)c3ccc(Cl)cc3)C(=O)C(=O)N2CC2CCCO2)o1 (stereo unspecified),i
CCOC(=O)N1CCN(C(=O)COc2ccc(Cl)cc2)CC1,i
O=C(NCCN1CCOCC1)c1ccc2c(c1)ncn2C1CCCCC1,1.1
COc1ccc(CC(=O)NC(=S)Nc2ccc(S(=O)(=O)NC(C)(C)C)cc2)cc1,i
Cc1c(C(=O)NCC(C)C)sc2nc(-c3ccc(F)cc3)cn12,i
Cc1noc(C)c1C(=O)Nc1ccccn1,0.2
CC(C)(C)NC(=O)NC(=O)COC(=O)C1CC(=O)N(Cc2ccccc2)C1 (stereo unspecified),i
O=[N+]([O-])c1ccc(Sc2ccc(Cl)c(Cl)c2)nc1,0.7

# By substructure, those above with a Cl atom (5)
SMILES,H5N1 antiviral
COc1ccccc1-c1cc(-c2cc(Cl)ccc2O)n[nH]1,i
CC(=O)n1nc(-c2ccc(Cl)cc2)nc1NCc1ccco1,i
Cc1ccc(C2/C(=C(/O)c3ccc(Cl)cc3)C(=O)C(=O)N2CC2CCCO2)o1 (stereo unspecified),i
CCOC(=O)N1CCN(C(=O)COc2ccc(Cl)cc2)CC1,i
O=[N+]([O-])c1ccc(Sc2ccc(Cl)c(Cl)c2)nc1,0.7

# The list goes on:
SMILES,H5N1 antiviral
O=C(CCCO)c1ccc2c(c1)OCCO2,i
CCN1CCN(c2nc3c(c(=O)[nH]c(=O)n3C)n2CCCSc2ncccn2)CC1,0.1
O=C(O)c1cccc(NCc2cccnc2)c1,i
Cc1nn(C)cc1C=NCCOCc1ccccc1,i
O=C1Nc2ccc(S(=O)(=O)N3CCCCCC3)c3cccc1c23,2.0
COc1ccc(CNc2nc3c(c(=O)n(Cc4ccc(Br)cc4)c(=O)n3C)n2C)cc1,0.9
Cc1ccccc1N1C(=O)CC(N2CCC(C(N)=O)CC2)C1=O (stereo unspecified),0.5
Cc1cc(C)n(-c2nc3ccccc3nc2N2CCN(S(=O)(=O)c3ccc(F)c(C)c3)CC2)n1,4.2
CCCCSc1nnc(CCCCCNC(=O)OC(C)(C)C)o1,i
O=C(Nc1ccc(OC(=O)c2cccs2)cc1)c1ccco1,0.1
COc1cccc(C2NC(=O)NC(C)=C2C(=O)Nc2cccc(C)c2C)c1 (stereo unspecified),1.6
Cc1ccc(C(=O)C2C(c3cccs3)NC(=O)NC2(O)C(F)(F)F)cc1 (stereo unspecified),0.1
CCn1c(C(C)NC(=O)Cc2ccccc2)nc2ccccc21 (stereo unspecified),0.9
Cc1ccc(N(CC(=O)Nc2ccc(-c3nc4ccc(C)cc4s3)cc2)S(C)(=O)=O)cc1,i
COCCNC(=O)C(c1cccc(OC)c1)N(C(=O)Cn1nnc2ccccc21)c1cccnc1 (stereo unspecified),i
COc1ccccc1-c1nnc2sc(COc3ccc(F)cc3)nn12,i
CCCCCCNC(=O)C(C#N)c1nc2ccccc2nc1N1CCCC1 (stereo unspecified),i
COc1ccc2nc(-c3ccco3)c(-c3ccco3)nc2c1,4.1
O=C(c1ccc(COc2ccccc2[N+](=O)[O-])o1)N1CCCCC1,0.3
COc1ccc(O)c(-c2cc(-c3cccs3)[nH]n2)c1,4.7
O=c1c2ccccc2nc2n1C(CSc1ccc(Cl)cc1)CN2 (stereo unspecified),2.4
c1ccc(C2C3=C(Nc4ncnn42)c2ccccc2CCC3)cc1 (stereo unspecified),2.3
CCC(=O)Nc1cccc(NC(=O)c2cc3ccccc3o2)c1,i
O=C(COc1ccc(Cl)cc1)Nc1ccc(N2CCN(C(=O)c3ccco3)CC2)cc1,i
O=C(Nc1ccccn1)C(NS(=O)(=O)c1cccc2nsnc12)c1ccccc1 (stereo unspecified),2.9
CCCOc1ccccc1-c1nc(SCCC(=O)O)n[nH]1,i
COc1ccc(CNC(=O)COC(=O)c2ccc3c(c2)OCCO3)cc1,0.2
CC(C)OCCCNc1ncnc2c1[nH]c1ccccc12,1.6
O=C(c1noc2c1CCCC2)N1CCCCC1,i
Cc1cccc(N2CCN(C(=O)c3ccncc3)CC2C)c1 (stereo unspecified),0.3
C=CCNC(=O)c1onc(CSc2cccc(C)c2)c1C(=O)O,i
Cc1cc(NC(=O)CSc2nc3cc4c(cc3c(=O)n2CCc2ccccc2)OCO4)no1,i
Cc1ccc2c(CC(=O)N3CCc4ccccc43)coc2c1,0.7
Cn1c(SCC(=O)N2CCCc3ccccc32)nnc1-c1cccs1,1.1
CCN(Cc1ccccc1)S(=O)(=O)c1ccc(S(=O)(=O)N(Cc2cccc(OC)c2)CC2CCCO2)cc1 (stereo unspecified),0.1
COC(=O)C1=C(C)N=C2SCCC(=O)N2C1c1cccs1 (stereo unspecified),i
CC1CC(C(F)F)n2nc(C(=O)O)cc2N1 (stereo unspecified),0.1
O=C1C(=O)N(CCO)C(c2cccc(F)c2)/C1=C(\O)c1ccc(Cl)cc1 (stereo unspecified),0.2
CCc1nc2scc(-c3ccccc3)c2c(=O)n1N,i
O=C(O)CC1SC(=O)N(Cc2ccccc2)C1=O (stereo unspecified),0.0
O=C(CSc1nc2ccccc2c(=O)n1Cc1ccco1)c1ccccc1,i
Cc1c(NC(=O)C2CCCN2S(=O)(=O)c2cccc3nsnc23)cccc1C(=O)O (stereo unspecified),0.2
CCCCC(=O)Nc1ccc(C(=O)N2CCN(C)CC2)cc1,0.2
CCOC(=O)C1=C(c2ccccc2)NC(=S)NC1c1cc([N+](=O)[O-])ccc1OC (stereo unspecified),1.1
COC(=O)c1ccccc1NC(=O)CSCC(=O)Nc1ccc(F)cc1,i
O=C(CSCC(=O)N1CCOCC1)Nc1ccccc1,i
CCOC(=O)C1CCN(S(=O)(=O)c2ccc(Br)c(OCC)c2)CC1,0.2
Oc1c(Cl)cc(Cl)c2c1NCCC2,i
CCSc1nc(C)c(CC)c(C)c1C(N)=O,i
CC1(C)Cn2c(nnc2-c2ccccc2)S1,0.3
COc1cc(NC(=O)Cn2nc(Cc3cccnc3)c3ccccc3c2=O)cc(OC)c1OC,1.9
CCn1c(SCC(=O)Nc2nc3ccc(OC)cc3s2)nc2c1c(=O)n(C)c(=O)n2C,1.0
Cc1ccc(NC(=O)COC(=O)c2ccnn2C)cc1,i
Cc1nnc(NC(=O)C2CCCCC2)s1,i
Cc1ccc(-c2nn(-c3ccccc3)cc2C=C2C(=O)CC(C)(C)CC2=O)cc1,i
NC12CC3CC(C1)CC(CO)(C3)O2,i
CCCNS(=O)(=O)c1ccc(CCC(=O)Nc2ccc3c(c2)OCO3)cc1,i
O=C(CNS(=O)(=O)c1ccccc1F)Nc1ccc(N2CCOCC2)cc1,1.1
Cc1ccc(Cn2cccc(NC(=O)NCc3ccccc3)c2=O)cc1,i
CCCC(=O)Nc1cccn(Cc2ccccc2Br)c1=O,i

# Part of the list above in order of count of non-hydrogen atoms, falling:
SMILES,H5N1 antiviral
CCn1c(SCC(=O)Nc2nc3ccc(OC)cc3s2)nc2c1c(=O)n(C)c(=O)n2C,1.0
CCCNS(=O)(=O)c1ccc(CCC(=O)Nc2ccc3c(c2)OCO3)cc1,i
Cc1ccc(NC(=O)COC(=O)c2ccnn2C)cc1,i
CCSc1nc(C)c(CC)c(C)c1C(N)=O,i
NC12CC3CC(C1)CC(CO)(C3)O2,i

# (next part)
SMILES,H5N1 antiviral
Cc1cccc(C)c1OCC(=O)Nc1ncn[nH]1,i
CCN=C1SC(CC(=O)NCC)C(=O)N1CC (stereo unspecified),1.4
O=C(CS(=O)CC(=O)Nc1ccc(Cl)cc1)NCC1OCCc2ccccc21 (stereo unspecified),i
CCOC(=O)CC(=O)CSc1nc(C)cc(-c2cccnc2)c1C#N,i
Nc1ncnc2c1ncn2CCN1CCCCC1,0.6
O=C(CSc1nc2ccccc2[nH]1)Nc1ccccc1F,i
COc1ccc(/C=N/Nc2nc(C)c([N+](=O)[O-])c(N(C)c3ccccc3)n2)cc1OC,1.2
C=CCc1ccc(OCC(O)COc2ccc(CC=C)cc2OC)c(OC)c1,0.3
O=C(CN1CCCCC1)Nc1cccc(Oc2ccccc2)c1,i
Clc1cccc(CSc2nnc(-c3cccnc3)n2Cc2ccco2)c1,i
CCOCCCNCC(=O)Nc1ccc(OC(F)(F)F)cc1,0.2
CCOC(=O)c1cccc(NC(=O)N[C@@H](C)C(=O)OC)c1,i
COc1cccc2cc(-c3nc(-c4cccs4)cs3)c(=O)oc12,i
COc1ccc2c(c1)c(C(=O)CN1CCC3(CC1)OCCO3)c(C)n2C,0.2
COC(=O)CCS(=O)(=O)c1cc(Cl)ccc1Cl,i

# Reformatted as labelled records: entries from further up.
> CC(=O)n1nc(-c2ccc(Cl)cc2)nc1NCc1ccco1
  H5N1 antiviral: i

> O=C(CN1C(=O)c2ccccc2S1(=O)=O)N1CCOCC1
  H5N1 antiviral: i

> Cc1ccc(/C=C/c2nc3ccccc3s2)s1
  H5N1 antiviral: i

> Cc1ccccc1C(=O)N1CCc2ccccc2C1
  H5N1 antiviral: 0.6

# The list goes on.
SMILES,H5N1 antiviral
COc1ccc(CNC(=O)c2c(N)n(CCCN3CCOCC3)c3nc4ccccc4nc23)cc1,i
COc1cc2[nH]c3c(N4CCN(c5ccc(Cl)cc5)CC4)ncnc3c2cc1OC,0.3
COC(=O)Cc1c(C)c2ccc(O)c(CN3CCCC(C)C3)c2oc1=O (stereo unspecified),0.4
COc1ccc(CCN(C(=O)C(F)(F)F)C(C(=O)NC2CCCCC2)c2ccc(C)s2)cc1 (stereo unspecified),0.2
Cc1ccc(-c2nc3ccccc3c(=O)n2-c2nccs2)cc1,1.5
S=c1nc[nH]c2c1[nH]c1ccccc12,0.8
Cn1cnnc1SCC(=O)Nc1c(F)cc(F)cc1Br,0.8
CC(=O)Nc1ccc(OC/C=C(\C)Cl)cc1,2.5
O=C(Nc1ccn(Cc2c(F)c(F)cc(F)c2F)n1)c1ccc(COc2cc(Cl)ccc2Cl)o1,0.5
CCCS(=O)(=O)N1CCCC(C(=O)NCCN(Cc2ccccc2)C(C)C)C1 (stereo unspecified),i
CCC(Sc1nc(N)cc(N)n1)C(=O)O (stereo unspecified),i
O=c1[nH]c2c(c(=O)n1Cc1ccccc1)CCC2,i
Cn1c(CCN2CCCCC2)nc2cc(NC(=O)C3CCCCC3)ccc21,0.7
CCN(CC)CCc1c(C)[nH]c(C(=O)OCc2ccccc2)c1C,i
CC(NC(=O)Nc1cccnc1)(C(F)(F)F)C(F)(F)F,1.3
Clc1ccc(CSc2nnc(Cn3cnc4ccccc43)o2)cc1,1.0
CC(C)CC(=O)N1CCN(Cc2cccc(F)c2)CC1,i
Cc1ccc(-c2noc(CCC(=O)Nc3cccc(C#N)c3)n2)cc1,i
O=C1CN=C(c2cccs2)c2c(sc3c2CCCC3)N1,0.8
COc1ccc(NC2c3ncccc3C(=O)N2Cc2ccccc2)c(OC)c1 (stereo unspecified),0.1
CCOc1ccccc1C(=O)N(C)Cc1cc2ccccc2[nH]c1=O,1.4
O=C(COC(=O)[C@H](Cc1c[nH]c2ccccc12)NC(=O)c1ccc(Cl)cc1)Nc1ccc2c(c1)OCO2,i
CC(=O)NCCOc1ccc2oc3ccccc3c2c1,i
Oc1ccc(C=Nc2ccc3ncccc3c2)c(O)c1,i
Cc1ccc(CN2C(=O)C(C)(C)Oc3ccc(C(=O)N4CCCCC4)cc32)cc1,i
CCC(C)NC(=O)CN(c1cc(C)ccc1OC)S(C)(=O)=O (stereo unspecified),0.1
N#CC(C#N)=C/C(C#N)=C(/N)N1CCN(c2ccc(Cl)cc2)CC1,1.5
COC(=O)C1C(c2ccccc2)C(C(=O)N2CCOCC2)C1c1ccccc1 (stereo unspecified),0.7
COc1ccccc1NC(NC(=O)c1ccco1)C(=O)c1ccccc1 (stereo unspecified),1.7
FC(F)(F)c1ccc(Sc2nnc(-c3cccs3)n2CC2CCCO2)nc1 (stereo unspecified),0.1
CCN(CC)c1ccc2cc(NC(=O)CCC(=O)O)c(=O)oc2c1,1.0
